Bead autofluor: flagged as autofluorescent in microsphere protease counterscreen; 360,000 tested, 3.1% active; fluorescence intensity (concentration not given with the values); AID 624483; compound autofluorescence counterscreen, microsphere flow cytometry; active compounds read high;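 active means at least 3 SD above the mean of all compounds, about 16000 in these data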;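 further: 100 nL of 1 mM stock went into each well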
An asterisk follows results filed as active. These rows are one share of the data (hit frequency here may not be typical).

SMILES	Bead autofluor
C[C@@H]1CN([C@@H](C)CO)S(=O)(=O)c2ccc(Br)cc2O[C@H]1CN(C)C(=O)c1ccccc1	3574
COc1ccc(CN2C(=O)C(CC(=O)NC3CC3)CC(C(=O)N3CCOCC3)=C2C)cc1 (centres undefined)	5482
CN(C)c1ccc(C=NN2C(=O)CSC2=S)c(Cl)c1	4486
O=C(NCc1ccccc1Cl)c1csc([C@@H]2O[C@H](CO)[C@H](O)[C@H](O)[C@H]2O)n1	3909
CC(=O)Nc1cccc(C(=O)Nc2cc(C(F)(F)F)ccc2-n2cncn2)c1	3808
C[C@H]1CN([C@@H](C)CO)S(=O)(=O)c2ccc(Br)cc2O[C@@H]1CN(C)C(=O)CCN1CCCCC1	3638
COC(=O)c1ccc(Cn2c(C)c(C(=O)NCc3ccc([N+](=O)[O-])cc3)sc2=O)o1	4003
O=C(Cn1sc2ccccc2c1=O)Nc1ccc(F)cc1	3860
CCc1nc2ccc(C(=O)NCCCN3CCCC3=O)cn2c1N(C)CCC(C)C	3356
CC(C)c1ccc(CNc2nc(NCC3CC3)nc3ccsc23)cc1	3472
Cc1nc2sccn2c(=O)c1S(=O)(=O)Nc1ccc(N2CCOCC2)cc1	5643
C[C@@H]1Cn2cnc(C(=O)N[C@@H](Cc3c[nH]c4ccccc34)C(=O)OC(C)(C)C)c2C(=O)N1	4327
CCCCn1nnnc1C(c1ccccc1)N1CCc2ccccc2C1 (centres undefined)	5789
COc1ccccc1N1CCN(Cc2cc(=O)oc3cc(C)cc(C)c23)CC1	6141
c1cc(N2CCOCC2)ccc1-c1ccc2nncn2c1	3829
CCOC(=O)C1(C)CCN1C(=O)c1ccccc1OC (centres undefined)	3037
Cc1nc2c(OCCC3CCCCC3)cccn2c1N(C)C(=O)CCC1CCCC1	3793
COc1ccc(S(=O)(=O)N(C)C)cc1NC(=O)c1ccc(OCC2CCCO2)cc1 (centres undefined)	4430
COc1ccc(-c2cc(C(=O)NCc3cccc(Cl)c3)[nH]n2)c(C)c1	4183
COc1ccc(S(=O)(=O)NC(=O)C2(C)CCN2C(=O)Cc2cc(F)ccc2F)cc1 (centres undefined)	3804
CC(C)=C[C@H]1C[C@H](C)[C@H]2CC[C@H](C)c3c(O)c(O[C@H]4OC[C@H](O)[C@@H](O)[C@@H]4O)c(C)c1c32	4190
CC1(C(=O)Nc2ccccc2Br)CCN1C(=O)Cc1ccccc1Cl (centres undefined)	3701
O=C1NC[C@H](CCCCN2CCN(CC3CCCCC3)C(=O)C2=O)N(CC2CCCCC2)C1=O	5191
O=C(OCc1ccccc1)N1CCC2CC1c1cc(N3CCN(S(=O)(=O)c4cccc5ccccc45)CC3)ccc12 (centres undefined)	6062
CCOC(=O)C1=CC[C@@H](c2ccccc2)N(S(=O)(=O)c2ccc(C)cc2)[C@H]1c1ccc(CC)cc1	5354
COC1CC(=O)C2OC(c3ccccc3)OCC2O1 (centres undefined)	3924
CCOC(=O)[C@]12Cc3cc(C)ccc3[C@H]1N(C1CCCCC1)C(=O)c1ccccc12	5922
CN(C)c1ccc(-c2[nH][nH]c(=O)c2NC(=O)c2ccccn2)cc1	5505
CC(C)CC(N)c1csc(Nc2ccccn2)n1 (centres undefined)	3903
C[C@@H]1CN([C@@H](C)CO)C(=O)c2cc(NC(=O)c3ccccc3)ccc2O[C@@H](C)CCCCO[C@@H]1CN(C)S(=O)(=O)c1ccc(F)cc1	3672
CC1(C(=O)NS(=O)(=O)c2cccc(OC(F)F)c2)CCN1C(=O)Cc1cccs1 (centres undefined)	3945
Cc1cccc(C)c1-n1nnnc1C1(C)CCC(=O)N1Cc1cccc(C(F)(F)F)c1 (centres undefined)	6152
O=C1CCC(=O)N1CCC(=O)N(C(=O)NC1CCCCC1)C1CCCCC1	3954
C[C@@H]1CN([C@H](C)CO)C(=O)c2c(c3ccccc3n2C)-c2ccccc2CO[C@@H]1CN(C)C(=O)Nc1ccccc1C(F)(F)F	3935
CCCCN(C)c1c(C)nc2ccc(C(=O)N(CC)CCN(C)C)cn12	4070
COc1ccc(NC(=O)C2(C)CCN2C(=O)C(C)C)cc1F (centres undefined)	3611
COCCNC(=O)c1cc2c(c(-c3cccc(-c4cc5ccccc5o4)c3)n1)[C@H](CCO)N(S(=O)C(C)(C)C)C2 (some centres undefined)	6691
Cc1cc2nc(-c3cccc(Br)c3)c(Cc3ccccc3)n2c(C)c1Br	6229
CC1(C(=O)Nc2ccc3c(c2)OCCO3)CCN1Cc1csc2ccccc12 (centres undefined)	3943
Cc1cc(Cl)ccc1C(O)c1ncc(-c2ccc3ccccc3c2)[nH]1 (centres undefined)	4043
CCCCCCN1C[C@H](O)[C@@H](n2cc(C3CC3)nn2)C[C@@H]1c1ccccc1	3907
CN(Cc1ccco1)C(=O)CC[C@H]1O[C@@H](n2ccc(=O)[nH]c2=O)[C@H](O)[C@@H]1O	4384
C[C@H](O)[C@@H]1C(=O)N2CCc3ccc(-c4ccccc4)cc3[C@@H]2C[C@@H]1N(C)C(=O)c1ccco1	3718
Cc1ccccc1-c1cc2nc(Oc3cccc4ccccc34)n(C)c(=O)c2s1	3867
COc1cc(C(C)=O)ccc1OCC(=O)N1CCCC1c1ccc2c(c1)OCCCO2 (centres undefined)	3734
COc1ccc(OC(=O)N(C)C[C@@H]2OCc3cnnn3CCCC(=O)N([C@@H](C)CO)C[C@H]2C)cc1	2785
O=C1OCCC1=COCCCCCOC=C1CCOC1=O	4027
O=C(O)CNc1nc(NCc2ccc(Cl)cc2)ccc1[N+](=O)[O-]	4030
CC(O)(c1ccccc1)c1nc(-c2cccc(C#N)c2)cs1 (centres undefined)	4067
CCOc1ccc(CCN2C(=O)C(=O)N([C@@H](CC(C)C)CN3CCC[C@H]3CN3C(=O)C(=O)NC[C@@H]3CC(C)C)C[C@@H]2Cc2ccccc2)cc1	4370
CCOC(=O)C(=O)N(C)c1c(CC)nc2c(OCc3ccc(Cl)cc3)cccn12	2882
C[C@@H]1CN(Cc2nnnn2CC(=O)NCCCn2cccn2)C[C@H](C)O1	3007
CC(=O)OC[C@@H]1CN(Cc2ccccc2)C[C@H](n2cnc3c(NC4CC4)ncnc32)O1	3956
CCOc1cc(N2CCOCC2)c(OCC)cc1NC(=O)c1cccc(S(=O)(=O)N2CC(C)OC(C)C2)c1 (centres undefined)	3957
CCOc1ccc(CCN2C(=S)N([C@@H](Cc3ccc(O)cc3)CN3CCC[C@@H]3CN3C(=S)NC[C@@H]3Cc3ccc(O)cc3)C[C@@H]2Cc2ccc(O)cc2)cc1	6026
COc1cccc(-c2ccc3c(c2)O[C@H](CN(C)C(=O)c2ccccc2F)[C@H](C)CN([C@H](C)CO)S3(=O)=O)c1	3610
Fc1ccc2nc(-c3ccccc3)ccc2c1	4287
O=c1[nH]c2ccccc2nc1-c1nnnn1C1CCCC1	5145
Cc1cc(/C=N/NC(=O)c2ccoc2C)cc(C)c1O	2959
COC(=O)C1(C)CCCC2(C)c3cc(OC)ccc3C(=O)C(Br)C12 (centres undefined)	3777
Next section
SMILES	Bead autofluor
C[C@@H]1CN([C@H](C)CO)C(=O)CCCn2nncc2CO[C@H]1CN(C)S(=O)(=O)c1ccc(-n2cccn2)cc1	4705
COc1cccc(CN(C)C(=O)C2CCCN(C(=O)c3ccc(Cl)cc3)C2)c1 (centres undefined)	3500
OC[C@@H]1CN(Cc2ccc(-c3ccccc3)cc2)C[C@H](n2cnc3c(N4CCOCC4)ncnc32)O1	3427
CC1(C(=O)NS(=O)(=O)c2ccccc2)CCN1C(=O)c1ccccc1 (centres undefined)	3830
CC1(C(=O)Nc2ccc3c(c2)OCO3)CCN1C(=O)Cc1cccs1 (centres undefined)	3624
COCCNc1nc(NCc2ccc(NC(C)=O)cc2)c2sc(-c3ccccc3)cc2n1	3571
CCc1ccc2cc(F)cc(F)c2n1	5761
Cc1ccc(OCCSc2nc3ccccc3n2CCC(=O)O)c(C(C)C)c1	3915
CN(C)CCCNc1nc2cc(-c3cccc(Cl)c3)sc2c(=O)n1C	4162
CC(C)[C@@H]1Cc2[nH][nH]c(=O)c2[C@H](CCc2ccccc2)O1	5460
CCCCN(CCCC)Cc1cc(=O)oc2cc(C)c(Cl)cc12	4737
Cc1ccc(S(=O)(=O)Nc2ccc3c(c2)C(=O)N([C@@H](C)CO)C[C@@H](C)[C@@H](CN(C)CC2CC2)OCCCC[C@@H](C)O3)cc1	3629
COc1cccc(NC(=S)NC2CC(C)CC(C)(C)C2)c1 (centres undefined)	3683
CCOc1ccc(CCN2C(=S)N([C@@H](Cc3ccc(O)cc3)CN3CCC[C@@H]3CN3C(=S)NC[C@@H]3CC(C)C)C[C@@H]2Cc2ccccc2)cc1	6201
COCCNC(=O)C1(C)CCN(C(=O)Cc2ccc(OC)c(OC)c2)C1 (centres undefined)	3757
C[C@H](CO)N1C[C@H](C)[C@@H](CN(C)Cc2ccccc2C(=O)O)OCc2cnnn2CCCC1=O	3712
CCN(CC)c1ncnc2c1ncn2[C@H]1CN(Cc2cccnc2)C[C@@H](CO)O1	3725
O=C1NC[C@@H](CCCCN2C[C@H](Cc3ccccc3)N(Cc3ccccc3)C(=O)C2=O)N(CC2CCCCC2)C1=O	6246
COc1ccc(-c2cnc3c(NC=O)cc(-c4ccc(C(=O)N5CCOCC5)cc4)cn23)cc1OC	3915
COCCn1c(C)cc(C(=O)CN2C(=O)C(=O)N(CCC3=CCCCC3)C2=O)c1C	3807
CC1CN(C(=O)COC(=O)c2cc(=O)[nH]c3ccccc23)CC(C)O1 (centres undefined)	3874
Cn1ccc2c(N3CCCCC3)cc3c(c21)C1CCC3C1 (centres undefined)	6044
CC(=O)Nc1ccc(NC(=O)COc2cccc3ccccc23)cc1	3810
CCc1nc2c(OCc3ccc(OC)cc3)cccn2c1N(C)C(=O)C(C)C	3639
CCN(C)C1CN(Cc2cn(Cc3ccccc3)nn2)S(=O)(=O)C1 (centres undefined)	5818
CN(Cc1ccccc1)C(=O)c1ccc(Nc2nc(C(N)Cc3ccccc3)cs2)nc1 (centres undefined)	3168
Cc1ccc(S(=O)(=O)NC(=O)C2(C)CCN2C(=O)CC2CCCC2)cc1 (centres undefined)	3551
O=Cc1cn(-c2ccccc2)nc1-c1cccc([N+](=O)[O-])c1	3414
COc1ccc(CCNC(=O)c2ccc(CSc3ccc(Cl)cc3)o2)cc1OC	5431
CC(=O)c1c(O)c(C)c(O)c2c1OC1=Cc3c(c(C)nn3C)C(=O)C12C (centres undefined)	3719
O=C(NCc1ccccc1)c1cc(C2CCCCN2C(=O)CCCc2ccccc2)on1 (centres undefined)	4103
COc1ccc(-c2oc3c(c2C(=O)OCCO)C(OCCCO)CCC3)cc1 (centres undefined)	6027
Cc1cn([C@H]2C[C@H](O)[C@@H](/C=C/C(=O)NCc3ccccc3)O2)c(=O)[nH]c1=O	5564
Cc1cc2nc(-c3ccco3)c(Cc3ccccc3C(F)(F)F)n2c(C)c1Br	6646
O=C(Nc1ccc2c(c1)OCCO2)C(CCc1ccccc1)N1CCN(c2ccc(F)cc2)CC1 (centres undefined)	6231
CCCS(=O)(=O)NC(=O)C1(C)CCN(C(=O)c2ccccc2OC(C)=O)C1 (centres undefined)	3399
CC1CN(C(=O)COC(=O)c2cncc(Br)c2)CC(C)O1 (centres undefined)	2989
CCCC(=O)NC(c1cccc([N+](=O)[O-])c1)c1ccc2cccnc2c1O (centres undefined)	3597
CCN(CC)C(=O)C1=C(C)N(CCCOC)C(=O)C(CC(=O)NC(c2ccccc2)c2ccccc2)C1 (centres undefined)	2946
O=C(Nc1ccc(NC(=S)NC(=O)c2ccco2)cc1)c1ccc(Br)cc1	3483

Exported with bars between the fields: part of the list above.
Molecule | Bead autofluor
Cn1ccc2c(N3CCCCC3)cc3c(c21)C1CCC3C1 (centres undefined) | 6044
CC(=O)Nc1ccc(NC(=O)COc2cccc3ccccc23)cc1 | 3810
CCc1nc2c(OCc3ccc(OC)cc3)cccn2c1N(C)C(=O)C(C)C | 3639
CCN(C)C1CN(Cc2cn(Cc3ccccc3)nn2)S(=O)(=O)C1 (centres undefined) | 5818
CN(Cc1ccccc1)C(=O)c1ccc(Nc2nc(C(N)Cc3ccccc3)cs2)nc1 (centres undefined) | 3168
Cc1ccc(S(=O)(=O)NC(=O)C2(C)CCN2C(=O)CC2CCCC2)cc1 (centres undefined) | 3551
O=Cc1cn(-c2ccccc2)nc1-c1cccc([N+](=O)[O-])c1 | 3414
COc1ccc(CCNC(=O)c2ccc(CSc3ccc(Cl)cc3)o2)cc1OC | 5431
CC(=O)c1c(O)c(C)c(O)c2c1OC1=Cc3c(c(C)nn3C)C(=O)C12C (centres undefined) | 3719
O=C(NCc1ccccc1)c1cc(C2CCCCN2C(=O)CCCc2ccccc2)on1 (centres undefined) | 4103
COc1ccc(-c2oc3c(c2C(=O)OCCO)C(OCCCO)CCC3)cc1 (centres undefined) | 6027
Cc1cn([C@H]2C[C@H](O)[C@@H](/C=C/C(=O)NCc3ccccc3)O2)c(=O)[nH]c1=O | 5564
Cc1cc2nc(-c3ccco3)c(Cc3ccccc3C(F)(F)F)n2c(C)c1Br | 6646
O=C(Nc1ccc2c(c1)OCCO2)C(CCc1ccccc1)N1CCN(c2ccc(F)cc2)CC1 (centres undefined) | 6231
CCCS(=O)(=O)NC(=O)C1(C)CCN(C(=O)c2ccccc2OC(C)=O)C1 (centres undefined) | 3399

Additional results follow:
SMILES	Bead autofluor
CC(C)NC(=O)c1cccc2c(-c3ccc(F)c(F)c3)coc12	3777
COc1ccc(NC(=O)N(C)C[C@@H]2Oc3cc(C#CCN(C)C)ccc3S(=O)(=O)N([C@H](C)CO)C[C@H]2C)cc1	3021
C[C@@H]1CN([C@H](C)CO)C(=O)CCCn2nncc2CO[C@H]1CN(C)S(=O)(=O)c1cccs1	3839
Cc1ccccc1-c1csc(C(C)(O)c2ccc(F)c(F)c2)n1 (centres undefined)	3646
CCCCCc1c(-c2ccc(OC)cc2)ncn1CCc1ccccc1OC	5984
C=CCn1c(SCC(=O)NC2CCCC2)nc2ccccc21	3861
O=C(NCc1ccccc1)C1Cc2c(-c3ccc4c(c3)OCO4)ccnc2O1 (centres undefined)	2884
CN[C@H]1C[C@H]2c3cc(Oc4ccccc4C)ccc3CCN2C(=O)[C@H]1[C@H](C)O	5281
CC1(C(=O)NS(=O)(=O)c2ccc(Br)cc2)CCN1C(=O)CC1CCCCC1 (centres undefined)	2825
COc1ccccc1CNc1nc(Nc2ccccc2-n2cccn2)c2sccc2n1	3695
O=S1(=O)CCN(C2CCCCCC2)CC1	3022

From PubChem BioAssay
